From PubChem
TRPV1 potentiator: human TRPV1 potentiation | potentiation, % at 8.33 µM | Q8NER1 | TRPV1-expressing cells, Fluo-8 calcium influx, capsaicin EC20 potentiation; host cell line not named in the record; control for the full effect not named in the record | actives 0.02% (n = 320,000); active means potentiation above 80%; inconclusive means 30% to 80%; inactive means below 30%; further: 0% is about no effect
Target sequence (Q8NER1 whole entry, looked up): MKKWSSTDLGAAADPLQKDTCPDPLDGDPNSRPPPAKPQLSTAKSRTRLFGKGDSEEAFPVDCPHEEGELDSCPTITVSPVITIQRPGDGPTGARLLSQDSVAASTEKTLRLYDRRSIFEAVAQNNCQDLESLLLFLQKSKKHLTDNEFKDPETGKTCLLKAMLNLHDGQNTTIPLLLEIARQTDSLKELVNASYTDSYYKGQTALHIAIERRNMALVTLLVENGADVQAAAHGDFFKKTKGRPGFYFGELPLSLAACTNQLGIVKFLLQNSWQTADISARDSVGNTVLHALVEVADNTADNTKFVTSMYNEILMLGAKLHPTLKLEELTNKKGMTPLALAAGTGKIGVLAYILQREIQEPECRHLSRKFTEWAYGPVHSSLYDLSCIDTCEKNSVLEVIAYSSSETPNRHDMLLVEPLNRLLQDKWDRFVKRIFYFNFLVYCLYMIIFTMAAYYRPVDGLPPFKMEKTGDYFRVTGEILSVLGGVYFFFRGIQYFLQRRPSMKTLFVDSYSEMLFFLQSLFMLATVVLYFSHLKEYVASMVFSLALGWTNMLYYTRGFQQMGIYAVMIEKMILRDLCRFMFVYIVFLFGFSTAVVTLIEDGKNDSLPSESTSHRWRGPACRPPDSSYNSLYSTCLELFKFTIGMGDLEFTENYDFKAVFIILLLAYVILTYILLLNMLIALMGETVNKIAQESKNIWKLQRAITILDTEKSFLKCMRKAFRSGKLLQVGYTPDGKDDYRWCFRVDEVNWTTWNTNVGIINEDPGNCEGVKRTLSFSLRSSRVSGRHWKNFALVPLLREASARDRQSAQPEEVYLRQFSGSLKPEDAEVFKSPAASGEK
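TRPV1-expressing cells were cultured overnight at 35.5C and loaded with Fluo-8 calcium dye for 40 to 90 min at room temperature. After a 10 s baseline, compound was added and calcium influx was read kinetically for 3 min (ex 480/em 520 nm).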
ClpP mod: qHTS Assay for Activators of ClpP; ATP-dependent Clp protease proteolytic subunit (Bacillus subtilis (strain 168)), P80244; purified B. subtilis ClpP, FRET peptide cleavage, 20 min; Potency, µM (top dose mostly 57.5 µM), inactives show top-dose activity change, negative = active; actives 1.9% (n = 340,000); active = well fitted falling curve with a large enough effect; inconclusive = small, poorly fitted or top-dose-only effect; inactive = no such curve, though single readings can be large or run the other way; further: potency means the concentration at half of the fitted maximal effect; the source files actives as falling curves though it sought activators and does not explain the sign; nearly all actives have a fitted effect of over 65% in size; many hits overshoot -100%
Target sequence (P80244 whole entry, looked up): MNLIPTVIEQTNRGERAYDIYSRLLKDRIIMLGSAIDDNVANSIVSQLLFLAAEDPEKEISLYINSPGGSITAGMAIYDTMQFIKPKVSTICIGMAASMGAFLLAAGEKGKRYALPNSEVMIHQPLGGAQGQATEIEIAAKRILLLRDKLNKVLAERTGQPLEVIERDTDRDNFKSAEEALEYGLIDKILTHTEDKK
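Buffer: 100 mM Tris/HCl pH8, 100 mM KCl, 0.05% low protease BSA, 2.5% glycerol, 0.01% Tween-20. ClpP 10 microg/mL final; 20 min RT; delta FRET normalized to ADEP and DMSO controls.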
CtBP-E1A blk: blocks the CtBP interaction with E1A. AlphaScreen GST-E1A/His-CtBP binding, 1536-well; stronger effect = lower value; control for the full effect not named in the record. activity change, % (concentration not given with the values). actives 0.49% (n = 340,000). AID 651724; in the data active means activity change below about -65%; inconclusive means about -30% to -65%; inactive means above about -30%; further: on the % scale 0 is the no-effect control and ±100 the full control effect
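Steps: dispense buffer (Tris pH 8.0, NaCl 300 mM, TCEP 1 mM, BSA, Tween 20); add 5X protein mix (GST-E1A, His-CtBP, 125 nM each); pin 23 nL compound; 2 h at 37 °C, dark; add 5X beads (50 ug/mL); 1 h; read.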
Sfp PPTase inh: inhibitors of Bacillus subtilis Sfp phosphopantetheinyl transferase; Potency, µM, for the others: max response, negative = inhibition, most hits filed as inhibitors; Biochemical Sfp PPTase activity, qHTS; actives 3.5% (n = 310,000); Q9F4F7; active means well fitted inhibition curve with a large enough effect; inconclusive means small, poorly fitted or top-dose-only effect, or another doubt; inactive means no such curve, though single readings can be large or run the other way;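 further: the enzyme is Sfp with the accession as filed and its product quenches rhodamine fluorescence; potency means the concentration at half of the fitted maximal effect; 0% = enzyme reaction without inhibitor and -100% = no enzyme wells; top concentration of the series not given in the record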
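Fluorescence-quenching assay: 15 nM Sfp-PPTase preincubated 15 min at room temperature with compound, then 5 uM rhodamine-CoA and 12.5 uM BHQ-2-labelled YbbR peptide added. Fluorescence (ex 525/em 598 nm) read at start and after 30 min; difference gives rate.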
gsp antag: antagonists of gsp mutant (McCune-Albright syndrome) | gsp-mutant cells, cAMP HTRF, 30 min; control for the full effect not named in the record | Potency, µM (highest dose often 76.9 µM), for the others: at the top dose activity change, negative = inhibition, most hits filed as inhibitors | actives 0.4% (n = 340,000); active = falling curve of any shape with a large fitted effect; inconclusive = falling curve, mostly with a smaller effect; inactive = flat or rising curve; cell line not stated here;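 further: intracellular cAMP measured with PDE inhibitor Ro 20-1724 present during compound exposure; potency means the concentration at half of the fitted maximal effect; on the % scale 0 is the no-effect control and ±100 the full control effect; nearly all actives have a fitted effect of over 65% in size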
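Cells in G418 medium, seeded 16-24 h, 37C; buffer exchange to DPBS + 1 mM CaCl2, 0.5 mM MgCl2, 0.05% BSA; cpds in DMSO + […] (300 uM stock), 30 min 37C; HTRF cAMP detection.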
gsp agonist: agonists of gsp mutant (McCune-Albright syndrome). gsp mutant cells, cAMP HTRF, 30 min; control for the full effect not named in the record. actives 0.13% (n = 340,000). Potency, µM (series often up to 76.9 µM), without a hit: at the highest dose activation (cAMP increase), actives largely listed as activators; active = well fitted activation curve with a large enough effect; inconclusive = small, poorly fitted or top-dose-only effect, or another doubt; inactive = no such curve, though single readings can be large or run the other way; cell line not stated here;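 further: phosphodiesterase inhibitor Ro 20-1724 added with compounds to block cAMP breakdown; potency means the concentration at half of the fitted maximal effect; nearly all actives have a fitted effect of over 60% in size; about a fifth of the inactives were tested at one dose only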
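Cells stably selected in G418 were plated at 2000/well, grown 16-24 hr, then given compounds in DMSO with the PDE inhibitor […] (300 uM solution added) for 30 min at 37C; cAMP was read by HTRF.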
Menin-MLL FL inh: inhibitors of human menin-MLL interaction, wild-type MLL peptide | Fluorescence polarization, fluorescein-MLL peptide displacement from menin | FP activity change, % at 61.4 µM | 290,000 tested, under 10 active; inconclusive = falling polarisation curve, or a change in total fluorescence; inactive = total fluorescence flat and polarisation flat or rising; no compound was filed as active; the % refers to the polarisation; negative = inhibition;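 further: % of control where 0% means no effect; inhibitors lower the polarisation; unlabelled MLL peptide was the positive control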
* = called active by the depositor; & = joins results of further samples; [ ] = dose if it differs, or a comment.

What do the screens show for `O=C1CC(c2ccco2)CC2=C1C=Nc1ccccc1N2` (stereo not given)?
TRPV1 potentiator: -30; ClpP mod: -2.3%; CtBP-E1A blk: -7; Sfp PPTase inh: inconclusive; gsp antag: -3%; gsp agonist: 4%; Menin-MLL FL inh: 20

What do the screens show for `Cc1cc(/C=C(\C#N)C(=O)NCc2cccs2)c(C)n1-c1ccc([N+](=O)[O-])cc1`?
TRPV1 potentiator: -1; ClpP mod: -1.5%; CtBP-E1A blk: -9; Sfp PPTase inh: -8%; gsp antag: -4%; gsp agonist: -6%; Menin-MLL FL inh: 2.0

Results for COc1ccc(C2=NO[C@@H]3C(=O)N(c4cccc(C)c4C)C(=O)[C@H]23)cc1OC ?
TRPV1 potentiator: 7; ClpP mod: 16%; CtBP-E1A blk: 1; Sfp PPTase inh: 18%; gsp antag: 3%; gsp agonist: -11%; Menin-MLL FL inh: 1.0

How did CC(=O)c1cccc(NC(=S)NC(=O)CC(C)(C)C)c1 do in these assays?
TRPV1 potentiator: -11; ClpP mod: -0.5%; CtBP-E1A blk: 6; Sfp PPTase inh: 6%; gsp antag: 1%; gsp agonist: -4%; Menin-MLL FL inh: 0.3

What do the screens show for `Cc1cc(N=Cc2c(O)n(-c3cccc(Cl)c3)c(=O)c3ccccc23)no1`?
TRPV1 potentiator: -3; ClpP mod: -1.9%; CtBP-E1A blk: 1; Sfp PPTase inh: -16%; gsp antag: -6%; gsp agonist: 1%; Menin-MLL FL inh: 9.9

Results for COc1ccc(NC(=O)CSc2ccccc2)c([N+](=O)[O-])c1 ?
TRPV1 potentiator: -13; CtBP-E1A blk: 0; Sfp PPTase inh: -15%; gsp antag: 10%; gsp agonist: -4%; Menin-MLL FL inh: -3.8

How did CC(C)Oc1ccc(C(=O)OC(C)C(=O)NC2CCCCC2C)cc1 (stereo not given) do in these assays?
TRPV1 potentiator: 15; ClpP mod: -1.5%; CtBP-E1A blk: -23; Sfp PPTase inh: 3%; gsp antag: 2%; gsp agonist: inconclusive

How did CC1CCCCC1NC(=O)COC(=O)c1c2c(nc3ccccc13)/C(=C/c1ccco1)CC2 (stereo not given) do in these assays?
TRPV1 potentiator: 16; ClpP mod: 2.2%; CtBP-E1A blk: -1; Sfp PPTase inh: -53%; gsp antag: -1%; gsp agonist: inconclusive; Menin-MLL FL inh: 11

How did Cc1ccc(C)c(NC(=O)c2nc(Cl)ccc2Cl)c1 do in these assays?
TRPV1 potentiator: 8; ClpP mod: 0.9%; CtBP-E1A blk: 6; Sfp PPTase inh: 13%; gsp antag: 2%; gsp agonist: -15%; Menin-MLL FL inh: 0.1

What do the screens show for `OCc1ccccc1NC(=S)Nc1cccnc1`?
TRPV1 potentiator: 3; ClpP mod: -5.2%; CtBP-E1A blk: 8; Sfp PPTase inh: 11%; gsp antag: 0%; gsp agonist: 13%; Menin-MLL FL inh: 1.9

How did COC(=O)[C@@H](CC(C)C)NS(=O)(=O)N(Cc1ccccc1)[C@@H](CC(C)C)C(=O)OC do in these assays?
TRPV1 potentiator: -12; ClpP mod: 3.0%&5.0%; CtBP-E1A blk: 12; gsp antag: -11%; gsp agonist: -20%

What do the screens show for `COc1ccc(C(=O)NCC2OCCc3ccccc32)cc1` (stereo not given)?
TRPV1 potentiator: -15; ClpP mod: 2.9%; CtBP-E1A blk: 2; Sfp PPTase inh: 10%; gsp antag: 11%; gsp agonist: -8%; Menin-MLL FL inh: 2.2

Results for COc1ccc(CC(=O)NCCS(=O)(=O)N2CCN(c3ccccc3)CC2)cc1OC ?
TRPV1 potentiator: -28; ClpP mod: -17%; CtBP-E1A blk: 2; gsp antag: 9%; gsp agonist: 1%[15.4 µM]

Results for Cc1cc(C(F)(F)F)nc(NCc2cccnc2)n1 ?
TRPV1 potentiator: 4; ClpP mod: inconclusive; CtBP-E1A blk: -21; Sfp PPTase inh: 21%; gsp antag: 11%; gsp agonist: -57%[inhibitor]; Menin-MLL FL inh: -0.6

What do the screens show for `CCN(CC)c1nc2c(c(=O)[nH]c(=O)n2C)n1Cc1ccccc1Cl`?
TRPV1 potentiator: -5; ClpP mod: -2.8%; Sfp PPTase inh: 12%; gsp antag: 8%; gsp agonist: -9%; Menin-MLL FL inh: -1.5

Results for CCC(C(=O)OCC(=O)c1ccc(OC)cc1OC)c1ccccc1 (stereo not given) ?
TRPV1 potentiator: 21; ClpP mod: -2.1%; CtBP-E1A blk: 23; gsp antag: -19%; gsp agonist: -11%

How did CCC(=O)Nc1sc2c(c1C(=O)OC)CCN(Cc1ccccc1)C2 do in these assays?
TRPV1 potentiator: -4; ClpP mod: -5.6%; CtBP-E1A blk: -13; Sfp PPTase inh: 2%; gsp antag: -5%; gsp agonist: -30%[inhibitor]; Menin-MLL FL inh: -1.2

What do the screens show for `O=c1oc2ccccc2n1Cc1ccccc1`?
TRPV1 potentiator: -1; CtBP-E1A blk: 5; Sfp PPTase inh: -10%; gsp antag: 8%; gsp agonist: -21%; Menin-MLL FL inh: 3.1

What do the screens show for `O=C(NCc1cccc(Cl)c1)c1ccc2c(c1)SC1=NS(=O)(=O)CCN12`?
TRPV1 potentiator: 22; ClpP mod: 0.8%; Sfp PPTase inh: 7%; gsp antag: 2%; gsp agonist: -6%; Menin-MLL FL inh: 3.5

Results for O=C(O)c1ccc2c(c1)N(Cc1ccccc1)C(=O)c1ccccc1S2 ?
TRPV1 potentiator: 10; CtBP-E1A blk: 0; Sfp PPTase inh: 13%; gsp antag: -21%; gsp agonist: -2%[15.4 µM]; Menin-MLL FL inh: 2.6

Results for CC(C)(C)n1ncc2c(=O)n(CC(=O)Nc3ccc(Cl)cc3)cnc21 ?
TRPV1 potentiator: 9; ClpP mod: -0.8%; CtBP-E1A blk: 1; Sfp PPTase inh: 10%; gsp antag: -8%; gsp agonist: 13%; Menin-MLL FL inh: -2.8

Results for CC(C)Cn1c(N)c(C(=O)NCCN2CCOCC2)c2nc3ccccc3nc21 ?
TRPV1 potentiator: inconclusive; ClpP mod: 28µM*; CtBP-E1A blk: 9; Sfp PPTase inh: inconclusive; gsp antag: -2%; gsp agonist: 27%; Menin-MLL FL inh: 2.7

How did Cc1cc(C(=O)COc2ccccc2Cl)c(C)n1C1CC1 do in these assays?
TRPV1 potentiator: -5; ClpP mod: 0.2%; CtBP-E1A blk: -3; gsp antag: -17%; gsp agonist: 43%

What do the screens show for `CCSc1nnc(NC(=O)Nc2cccc(C)c2)s1`?
CtBP-E1A blk: -4; Sfp PPTase inh: 14%; gsp antag: -16%; gsp agonist: -27%[15.4 µM]; Menin-MLL FL inh: -1.0

What do the screens show for `Cc1ccc2c(c1)[C@@H](O)C[C@@H](C)N2N=O`?
TRPV1 potentiator: 4; ClpP mod: -0.6%; CtBP-E1A blk: 6; Sfp PPTase inh: 29%; gsp antag: 7%; gsp agonist: 14%[15.4 µM]; Menin-MLL FL inh: 4.7

How did Cc1ccc(CNC(=O)c2cc(-c3ccccc3)nn2CC2CC(c3cccnc3)=NO2)cc1 (stereo not given) do in these assays?
ClpP mod: -3.2%; CtBP-E1A blk: 0; gsp antag: -5%

Results for COc1ccc(C(=O)N(C)CCOc2ccc(Cl)cc2)cc1S(=O)(=O)N1CCCC1 ?
ClpP mod: -2.1%; CtBP-E1A blk: -1; gsp agonist: -6%

What do the screens show for `Cc1cc(C=O)c(C)c2c1[nH]c1ccccc12`?
ClpP mod: -7.2%; CtBP-E1A blk: 0; gsp antag: -23%; gsp agonist: -18%

What do the screens show for `CCc1ccc(-c2cc3c(=O)n(CC(=O)N4CCCCCC4)nc(C)n3n2)cc1`?
TRPV1 potentiator: 9; ClpP mod: -1.3%; CtBP-E1A blk: 7; Sfp PPTase inh: 5%; gsp antag: 3%; gsp agonist: -33%; Menin-MLL FL inh: -3.9

What do the screens show for `C=CC[n+]1c(C)csc1Nc1ccc(C(=O)O)cc1`?
TRPV1 potentiator: 9; ClpP mod: 0.5%; Sfp PPTase inh: -9%; gsp antag: -31%; gsp agonist: -12%; Menin-MLL FL inh: 4.3

How did CCN(C(=O)COC(=O)/C=C/c1cccc([N+](=O)[O-])c1)c1ccccc1 do in these assays?
TRPV1 potentiator: -10; CtBP-E1A blk: -22; Sfp PPTase inh: -2%; gsp antag: 0%; gsp agonist: -9%[15.4 µM]; Menin-MLL FL inh: -2.5

What do the screens show for `COc1ccc(C(=O)O/N=C2\C(=O)N(C)c3ccccc32)cc1`?
ClpP mod: -1.1%; gsp antag: 11%; gsp agonist: -30%[inhibitor]

What do the screens show for `O=c1ccc(Oc2nc(N3CCCCC3)nc(N3CCCCC3)n2)n[nH]1`?
TRPV1 potentiator: -15; ClpP mod: 2.0%; CtBP-E1A blk: 2; Sfp PPTase inh: 4%; gsp antag: -21%; gsp agonist: -37%[inhibitor]; Menin-MLL FL inh: -0.1

Results for CCN(CC(=O)NC1CCS(=O)(=O)C1)C(=O)/C=C/c1cccs1 (stereo not given) ?
TRPV1 potentiator: -4; ClpP mod: -0.9%; Sfp PPTase inh: 17%; gsp antag: -3%; gsp agonist: 5%; Menin-MLL FL inh: -5.8

Results for COc1cc(/C=N/n2nnnc2N)cc(OC)c1OC ?
TRPV1 potentiator: 0; ClpP mod: 4.0%; Sfp PPTase inh: 21%; gsp antag: -4%; gsp agonist: 5%; Menin-MLL FL inh: 2.0

What do the screens show for `O=C(O)CCC(=O)Nc1ccc(N2CCOCC2)cc1`?
TRPV1 potentiator: 1; ClpP mod: 1.0%; CtBP-E1A blk: 8; Sfp PPTase inh: -2%; gsp antag: 6%; gsp agonist: -19%; Menin-MLL FL inh: 6.0

Results for C[C@@]1([C@@H](NC(=O)c2cccs2)c2ccc(-c3ccccc3)cc2)C[C@H]1C1CCCCC1 ?
TRPV1 potentiator: 6; ClpP mod: -3.1%; CtBP-E1A blk: -3; Sfp PPTase inh: 7%; gsp antag: 9%; gsp agonist: -17%; Menin-MLL FL inh: 3.2

Compounds as they come, and some 5.3% of all compounds hit somewhere here.
